Polio RdRp inh: inhibitors of poliovirus RNA polymerase binding and polymerization; poliovirus polymerase elongation, fluorescence polarization; active compounds read low; % elongation, % (compound at 16.7 µg/mL); hit rate 0.66% among 150,000; AID 588519; in the data active = % elongation below about 90%; note: some results filed as inactive read as strong as hits
Target sequence (P03300 1749-2209 limits assumed): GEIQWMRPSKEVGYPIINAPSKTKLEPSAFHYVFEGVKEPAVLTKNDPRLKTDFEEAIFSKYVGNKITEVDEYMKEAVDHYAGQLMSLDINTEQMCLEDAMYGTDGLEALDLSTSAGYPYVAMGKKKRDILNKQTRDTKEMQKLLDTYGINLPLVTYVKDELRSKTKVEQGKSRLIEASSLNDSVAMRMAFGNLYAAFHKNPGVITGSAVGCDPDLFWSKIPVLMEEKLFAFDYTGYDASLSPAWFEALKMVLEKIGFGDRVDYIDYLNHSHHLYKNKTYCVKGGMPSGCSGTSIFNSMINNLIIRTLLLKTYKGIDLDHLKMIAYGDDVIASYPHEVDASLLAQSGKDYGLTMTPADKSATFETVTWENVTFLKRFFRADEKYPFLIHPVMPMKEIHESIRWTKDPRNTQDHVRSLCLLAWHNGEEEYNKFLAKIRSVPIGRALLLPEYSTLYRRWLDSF
Polio RdRp inh intensity: recorded beside Polio RdRp inh, whose call it bears; % elongation; measured here: total intensity read-out; formula for this scale not given here;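 total fluorescence in place of polarization; lower means less elongation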
The depositor's hits bear a star. This is a subset; rates above refer to the full screens.

nr	smiles	Polio RdRp inh	Polio RdRp inh intensity
1	CCOc1ccc(NS(=O)(=O)c2ccc3[nH]cc(C(=O)N(C)Cc4ccccc4)c(=O)c3c2)cc1	103	99
2	COc1ccc(OC)c(NC(=O)CSc2n[nH]c(-c3ccccc3Cl)n2)c1	109	112
3	CC(=O)N1CCCC1c1nc2ccccc2n1Cc1ccccc1F (centres undefined)	103	113
4	COc1ccc(C2C=C(c3ccc(Cl)c(Cl)c3)Nc3ncnn32)cc1 (centres undefined)	94	138
5	CN(Cc1ccccc1)C(=O)C1CCN(S(=O)(=O)c2ccc3c(c2)oc(=O)n3C)CC1	111	110
6	O=C(COc1ccc(Cl)cc1)Nc1ccc(-c2nc3ccccc3s2)c(O)c1	104	106
7	O=C(Nc1ccccc1C(F)(F)F)N1Cc2ccccc2Oc2ncccc21	110	113
8	Cc1ccc(NC(=O)CN2C(=O)C(c3ccc(C(C)(C)C)cc3)=NC2(C)C)cc1	32*	44*
9	COc1ccccc1NC(=O)Cn1c(=O)n(Cc2ccco2)c(=O)c2oc3ccccc3c21	102	107
10	COc1cc2nc(SCc3cccc(Cl)c3)n3nc(CCn4nc(C)cc4C)nc3c2cc1OC	104	105
11	CCOc1ccc(C(=O)Nc2c(C)nc(Nc3ccccc3)nc2Nc2ccccc2)cc1OCC	115	118
12	CCC(=O)N1c2ccccc2CC1C(=O)NCc1ccc(CC)cc1 (centres undefined)	107	104
13	Cc1oc(-c2ccc(C(=O)N(C)Cc3ccccc3)cc2)nc1CN1CCc2ccccc21	103	99
14	Cc1ccccc1NC(=O)COc1ccc2oc3c(c2c1)CCCC3	109	107
15	Cc1ccccc1CNC(=O)c1nn(-c2ccccc2F)nc1CO	101	108
16	Cn1nc(-c2ccc(OCC(=O)Nc3cccc(C(F)(F)F)c3)cc2)c2ccccc2c1=O	106	111
17	COc1ccc(C)cc1NC(=O)Cc1ccc(NC(=O)N2CCCCc3ccccc32)cc1	110	115
18	CCOC(=O)c1cc(S(=O)(=O)N2CCN(c3cccc(C)c3C)CC2)[nH]n1	99	99
19	CCS(=O)(=O)c1cccc(C(=O)Nc2ccc(-c3nc4ccccc4s3)c(O)c2)c1	111	118
20	CCOc1ccc(CCNC(=O)c2cc3c(=O)n(CC)c4ccccc4c3s2)cc1OCC	105	105

nr	smiles	Polio RdRp inh	Polio RdRp inh intensity
21	COC(=O)c1ccc(OCC2c3cc(OC)c(OC)cc3CCN2C(=O)C(C)C)cc1 (centres undefined)	111	96
22	Cc1ccc2nc(Cl)c3cc(C(=O)NCCCN4CCC(C)CC4)sc3c2c1	103	103
23	COc1ccc(-c2nc3cc(NC(=O)Cc4ccc(Cl)cc4)ccc3o2)cc1OC	105	107
24	Cc1cccc(CS(=O)(=O)Cc2ccc(C(=O)NCCc3ccccc3)o2)c1	113	105
25	COc1cc(NC(=O)Cn2cc(S(=O)(=O)N3CCC(C)CC3)c3ccccc3c2=O)cc(OC)c1OC	110	112
26	Cc1cccc(OCc2cc(=O)n3c(-c4ccccc4)csc3n2)c1C	114	116
27	Cc1ccc(NC(=O)CC2Oc3ccccc3NC2=O)cc1C (centres undefined)	107	103
28	CCOC(=O)COc1ccc(C)cc1C(=O)c1ccn2nc(-c3ccc(F)cc3)cc2n1	107	111
29	Cc1ccc(CNC(=O)c2cnc(N3CCCCC3)c3ccccc23)cc1	103	109
30	CCCCc1ccc(NC(=O)CSc2nnc3[nH]c(=O)cc(C)n23)cc1	107	100
31	CCOC(=O)c1ccc(NC(=O)c2c(NCc3cc(OC)c(OC)cc3OC)sc3c2CCCC3)cc1	108	110
32	COc1cc(NC(=O)Cn2cc(C(=O)c3ccc(F)cc3)c(=O)c3ccc(C)nc32)cc(OC)c1	110	117
33	Cc1nnc(N2CCC(C(=O)NCc3cccc(Cl)c3)CC2)c2nn(-c3ccccc3)c(C)c12	96	96
34	Cc1cnc2c(c1SCC(=O)Nc1ccc(F)cc1F)c(=O)n(C)c(=O)n2C	110	109
35	CCOC(=O)c1cc(-c2ccc(C)cc2)n(CC(=O)Nc2ccccc2F)c1C	104	110
36	CCc1ccc(NC(=O)CN(c2ccc(Cl)cc2)S(=O)(=O)c2ccsc2C(=O)OC)cc1	110	96
37	Cc1ccc(NC(=O)Cn2c(=O)n(Cc3nc(-c4ccccc4)no3)c(=O)c3cc4c(cc32)OCO4)c(C)c1	108	113
38	Cc1ccc(Sc2c(C(=O)NCc3ccccc3C)[nH]c3ccccc23)cc1	110	114
39	CCCCN(C)CCNC(=O)c1nn(-c2ccc(OC)cc2)c(=O)c2c1c1ccccc1n2C	107	109
40	Cc1cc(C)n(C(C)CC(=O)NCc2ccc(N(C)C)cc2)n1 (centres undefined)	97	101

Part of the list above in order of number of heavy atoms, highest first.
nr	smiles	Polio RdRp inh	Polio RdRp inh intensity
31	CCOC(=O)c1ccc(NC(=O)c2c(NCc3cc(OC)c(OC)cc3OC)sc3c2CCCC3)cc1	108	110
28	CCOC(=O)COc1ccc(C)cc1C(=O)c1ccn2nc(-c3ccc(F)cc3)cc2n1	107	111
23	COc1ccc(-c2nc3cc(NC(=O)Cc4ccc(Cl)cc4)ccc3o2)cc1OC	105	107
35	CCOC(=O)c1cc(-c2ccc(C)cc2)n(CC(=O)Nc2ccccc2F)c1C	104	110
24	Cc1cccc(CS(=O)(=O)Cc2ccc(C(=O)NCCc3ccccc3)o2)c1	113	105
30	CCCCc1ccc(NC(=O)CSc2nnc3[nH]c(=O)cc(C)n23)cc1	107	100

(cont.)
nr	smiles	Polio RdRp inh	Polio RdRp inh intensity
41	CCN(C(=O)Cn1c(C(=O)OC)cc2oc3ccccc3c21)c1cccc(C)c1	104	108
42	CCOc1ccc(C(=O)NCc2ccc3c(c2)CCN3C(=O)c2ccccc2)cc1	114	112
43	CC(C)c1cnc2c(c1SCC(=O)O)c(=O)n(C)c(=O)n2C	111	114
44	COc1ccc(NC(=O)CSc2nc3ccccc3[nH]2)cc1	111	114
45	CCc1ccc(C2C(C(=O)Nc3ccccc3C)=C(C)Nc3nc(SCc4cccc(OC)c4)nn32)cc1 (centres undefined)	111	101
46	O=C(O)c1ccc(Nc2nc(-c3ccccc3)c3cc(Br)ccc3n2)cc1	101	104
47	Cc1ccc(NC(=O)C2CCCN(S(=O)(=O)c3c(C)n[nH]c3C)C2)cc1C (centres undefined)	106	103
48	O=C(c1cc2c(s1)-c1ccccc1OC2)N1CCN(c2ccc(F)cc2)CC1	107	107
49	CCCn1cc(S(=O)(=O)c2cccc(Cl)c2)c(=O)c2cc(F)c(N3CCOCC3)cc21	111	109
50	Cc1cccc(C(=O)Nc2c(C(=O)N3CCN(c4ccc(F)cc4)CC3)oc3ccccc23)c1	106	104
51	COc1ccc(S(=O)(=O)c2cn(C)c3ccc(C)cc3c2=O)cc1	107	110
52	CCc1cccc(C)c1NC(=O)CN1C(=O)c2cccc3cccc1c23	105	104
53	COc1ccc(Cn2c(C(=O)O)c(CNCCc3ccccc3Cl)c3ccc(C)cc32)cc1	105	107
54	CCC(=O)N1CCc2cc(Br)cc(S(=O)(=O)CCC(=O)Nc3cccc(C)c3C)c21	109	107
55	COc1ccc2[nH]c3c(c2c1)CCN(C(=O)c1cccc(Cl)c1)C3c1ccc(F)cc1 (centres undefined)	105	107
56	COc1cc(CN(C(=O)COc2ccccc2Cl)c2ccccn2)cc(OC)c1OC	111	108
57	COc1cccc(C2NC(=O)c3n[nH]c(-c4cccs4)c32)c1 (centres undefined)	106	105
58	Cc1ccsc1CCN1C(=O)N(c2ccc(F)cc2)C(=O)C1CC(=O)Nc1ccccc1 (centres undefined)	109	108
59	CC(=O)c1c(C)oc2ccc(N(C(=O)Oc3ccccc3)S(=O)(=O)c3ccc(Br)cc3)cc12	105	106
60	COc1ccc(Cl)cc1CNCCSc1nnnn1-c1ccccc1	109	101

nr	smiles	Polio RdRp inh	Polio RdRp inh intensity
61	COc1cc(NC(=O)c2cc(-c3ccc(Cl)c(Cl)c3)on2)cc(OC)c1OC	108	105
62	Cc1ccc(C(=O)NCCn2c(C)cc3ccccc32)cc1C	107	108
63	Cc1nnc2c3ccccc3nc(Nc3ccccc3C(=O)O)n12	108	110
64	CCOc1ccccc1C1Nc2ccccc2-c2nnc(SCc3ccccc3)nc2O1 (centres undefined)	105	113
65	COc1ccc2nc3sc(C(=O)Nc4cc(Cl)c(OC)cc4OC)cc3cc2c1	113	117
66	CC(C)c1ccc(OCC(O)CN2CCN(c3ccc(F)cc3)CC2)cc1 (centres undefined)	97	92
67	Cc1ccc2c(c1)C(c1ccc(F)cc1)N(C(=O)c1cccc(C(F)(F)F)c1)CC(=O)N2 (centres undefined)	99	99
68	COC(=O)c1ccc(NC(=O)CCS(=O)(=O)c2ccc(Br)cc2)cc1	109	113
69	CCOc1cc(C(=O)Nc2ccc3oc(-c4ccc(F)cc4Cl)nc3c2)cc(OCC)c1OCC	100	109
70	CCOc1ccc(NC(=O)Cn2c(CCC(=O)O)ccc2-c2ccc(Cl)cc2)cc1	112	109
71	Cc1nn2c(C(F)(F)F)cc(-c3ccc(OC(C)C)cc3)nc2c1C#N	107	110
72	O=C(OCc1cc(=O)n2nc(C3CC3)sc2n1)c1ccc(F)cc1	104	111
73	O=c1c(N2CCc3ccccc3C2)csc2ccc(Cl)cc12	107	107
74	O=C(CC1N=C2c3ccccc3N=C(SCc3ccccc3Cl)N2C1=O)NC1CCCCC1 (centres undefined)	108	106
75	Cc1ccsc1CN(C(=O)c1oc2ccccc2c1C)C1CCS(=O)(=O)C1 (centres undefined)	117	119
76	Cc1cccc(CC(=O)NCCc2sc3nc(-c4ccc(F)cc4)nn3c2C)c1	107	101
77	CCSc1nc(-c2ccccc2OC)nc2c1Cc1c(CO)cnc(C)c1O2	102	104
78	Cc1c(C)n(Cc2ccc(Cl)cc2)c2ccc(C(=O)N3CCN(c4ccccc4F)CC3)cc12	104	109
79	COc1ccc(NC(=O)Cn2cc(C(=O)C3CC3)c3ccccc32)cc1	103	105
80	COc1ccccc1NC(=O)N1CCN(c2ccc3nnc(-c4ccc(F)cc4)n3n2)CC1	106	107

Quoted from the listing.
Polio RdRp inh intensity, Cc1ccc(Sc2c(C(=O)NCc3ccccc3C)[nH]c3ccccc23)cc1 : 114
Polio RdRp inh intensity, COc1ccccc1NC(=O)N1CCN(c2ccc3nnc(-c4ccc(F)cc4)n3n2)CC1 : 107
Polio RdRp inh intensity, O=C(OCc1cc(=O)n2nc(C3CC3)sc2n1)c1ccc(F)cc1 : 111

(further entries)
nr	smiles	Polio RdRp inh	Polio RdRp inh intensity
81	O=C(Nc1ccc(Cl)cc1F)c1oc(=O)c2ccccc2c1-c1ccccc1	111	112
82	COc1ccccc1N1CCN(S(=O)(=O)c2c(C)nc3sc(C)c(C)n3c2=O)CC1	112	116
83	CN(C(=O)CSc1nc2ccc(NC(=O)c3ccccc3)cc2s1)c1ccccc1	109	112
84	CCn1c(=O)sc2cc(NS(=O)(=O)c3ccc(F)c(C)c3)ccc21	114	119
85	Cc1ccc(-n2ncc3c(NC(C)c4ccccc4)ncnc32)cc1 (centres undefined)	106	110
86	CC(=O)N1CCc2cc(S(=O)(=O)NC(Cc3ccccc3)C(=O)Nc3ccc(Cl)cc3)ccc21 (centres undefined)	98	101
87	COc1ccc(Cn2c(CNC(=O)Cc3cccc([N+](=O)[O-])c3)nc3cccnc32)cc1	111	115
88	CCCCCN1C(C(=O)c2ccccc2)=C(NC(C)=O)c2ccccc2S1(=O)=O	103	104
89	COc1cc(NC(=O)NCC2CCN(Cc3ccc(C)cc3)CC2)cc(OC)c1OC	111	106
90	CC(C)c1ccc(N(CC(=O)O)S(=O)(=O)c2ccc3[nH]c(=O)c(=O)[nH]c3c2)cc1	96	88
91	CCc1ccc(NC(=O)Cn2c(=O)nc(-c3ccccc3F)c3cc(Cl)ccc32)cc1	111	107
92	COc1ccc(CNC(=O)CCCCCn2c(=O)[nH]c3ccccc3c2=O)cc1	111	107
93	O=C(Cn1c(=O)c2cccn2c2ccccc21)NCc1ccccc1F	122	122
94	CS(=O)(=O)N1CCc2cc(C(=O)NCc3ccccc3)ccc21	107	110
95	CCCC(=O)Nc1nnc(S(=O)(=O)N(C)c2ccccc2)s1	110	95
96	CCOC(=O)c1c(NC(=O)COc2ccc(Cl)cc2Cl)sc2c1CCCCC2	106	108
97	CC(C)NC(=O)C1CCC(Cn2c(=O)c3sccc3n(CC(=O)Nc3ccccc3)c2=O)CC1 (centres undefined)	111	114
98	COc1ccc(-c2noc(-c3nnn(-c4cc(C)ccc4C)c3N)n2)cc1	112	111
99	CCOc1ccccc1NC(=O)CCn1nc(C)c(S(=O)(=O)N2CCCCC2)c1C	101	109
100	c1ccc(CSc2nc3ncccc3[nH]2)cc1	112	113

nr	smiles	Polio RdRp inh	Polio RdRp inh intensity
101	CCC(C)NC(=O)c1ccc2nc(CCc3ccccc3)oc2c1 (centres undefined)	101	103
102	Cc1ccccc1CN1C(=O)c2ccccc2S(=O)c2ccc(C(=O)NCc3ccccc3)cc21 (centres undefined)	109	105
103	COc1cccc(-c2cc(C(=O)NCCc3ccc(C)cc3)[nH]n2)c1	106	97
104	CC(C)(C)c1ccc(S(=O)(=O)c2cn(CC(=O)Nc3ccccc3)c3ccccc3c2=O)cc1	105	106
105	Cc1oc2ccc(O)c(CN3CCCC(C)C3)c2c1C(=O)Nc1ccccc1 (centres undefined)	110	113
106	COc1ccccc1CNC(=O)CCCn1c(=O)c2ccccc2n(CC(=O)Nc2c(C)cc(C)cc2C)c1=O	101	95
107	Cc1cc(=O)[nH]c2nnc(SCc3ccc(F)cc3)n12	107	106
108	CC(=O)N1CCc2c(sc3c2c(=O)n(Cc2ccccc2)c(=O)n3Cc2ccc(C)cc2)C1	103	108
109	CC(C)c1ccc(NC(=O)CSC2=Nc3ccccc3C3=NC(CC(=O)NCc4cccs4)C(=O)N23)cc1 (centres undefined)	100	103
110	Cc1cc(C)cc(NC(=O)CSc2nc(=O)n(Cc3ccccn3)c3c2CCC3)c1	104	100
111	O=c1cc(-c2ccccc2)c2ccc3c(c2o1)CN(Cc1cccc(Cl)c1)CO3	105	112
112	Cc1cccc(NCc2nc3ccccc3n2CCOc2ccccc2C)c1	107	105
113	CCOc1ccc(NC(=O)c2sc3nc4n(c(=O)c3c2C)CCC4)cc1	107	105
114	CS(=O)(=O)c1ncc(Cl)c(C(=O)N2CCN(c3cccc(Cl)c3)CC2)n1	112	105

Source: PubChem (ICCB-Longwood Screening Facility, Harvard Medical School)
